Vaccinia mCherry: vaccinia inhibition (mCherry reporter). Vaccinia virus mCherry reporter infection, fluorescence; about a quarter of the inactives have no number. Potency, µM (doses to about 36.5 µM), inactives show at the top dose activity change, negative = inhibition, hits mostly inhibitors. actives 0.63% (n = 310,000). AID 720579; active = well fitted inhibition curve with a large enough effect; inconclusive = small, poorly fitted or top-dose-only effect; inactive = no such curve, though single readings can be large or run the other way; tested in A549 cells; also: nearly all actives have a fitted effect of over 35% in size; inactives centre near -10
VACV Venus inh: inhibitors of vaccinia virus (Venus reporter); Vaccinia virus Venus reporter expression, fluorescence; Potency, µM (doses to about 36.5 µM), for the others: top-dose activity change, negative = inhibition, hits mostly inhibitors; actives 0.46% (n = 330,000); AID 720580; active means well fitted inhibition curve with a large enough effect; inconclusive means small, poorly fitted or top-dose-only effect; inactive means no such curve, though single readings can be large or run the other way; tested in A549 cells; also: nearly all actives have a fitted effect of over 30% in size; inactives centre near -10
Starred values were filed as active, the others as inactive; i = inactive; ? = inconclusive; / = not tested or not shown; & = joins results of further samples; [ ] = dose if it differs, or a comment. % is scaled to controls: 0 for no effect and ±100 for the full control effect; potency is read from the fitted curve at half-maximal effect.

Sequence of screens: VACV Venus inh | Vaccinia mCherry
O=C(OCc1c(-c2ccccc2)ncc2ccccc12)c1ccc(C(F)(F)F)cc1
  ? | ?
O=C(CSc1nc2ccccc2c(=O)n1-c1ccccc1F)N1CCOCC1
  0.3% | -12.1%
CC(C)(C)c1ccc(NC(=O)Nc2ccc(F)cc2)cc1
  -22.6% | ?
CCN1CCN(c2cc(C)c3cc(NC(=O)/C=C/c4cccc(Cl)c4)ccc3n2)CC1
  ? | 11.2µM*
Cc1occc1C(=O)N1CCCC(Nc2ccc(C(C)C)cc2)C1 (stereo not drawn)
  -22.7% | -26.1%
C/C=C/c1cccc(-c2nc(C(=O)N3CCCCC3)cc3c2[C@@H](CCO)N(C(=O)NC(C)C)C3)c1
  -1.1% | -7.9%
CCS(=O)(=O)N1CCc2cc(C(=O)Nc3ccc(Br)cc3F)ccc21
  -22.5% | -18.9%
Fc1ccccc1N1CCN(c2ncnc3c2nc2n3CCCCC2)CC1
  -12.0% | -13.0%
COc1ccc(C=O)cc1CN1CCCN(Cc2ccccc2F)S1(=O)=O
  -10.1% | -6.8%
Cc1csc(NC(=O)CSCc2c(C)noc2C)n1
  0.7% | i
O=C(C1CC1)N1CCc2cc(Br)cc(S(=O)(=O)NCc3ccc4c(c3)OCO4)c21
  -9.8% | -14.1%
Cc1nnc(SCC(=O)N2CCc3ccccc3C2)n1-c1ccccc1
  -2.0% | -14.7%
CCOc1ccc(C(=O)N2CC(=O)Nc3ccc(F)cc3C2c2ccc(F)cc2)cc1 (stereo not drawn)
  0.3% | -6.2%
CCOC(=O)c1ccc(NC(=O)C2CC(=O)NC(=Nc3ccc(C)c(C)c3)S2)cc1 (stereo not drawn)
  -2.3% | -6.4%
O=C(Nc1ccccc1)c1cc(C2CCCCN2C(=O)OCCF)on1 (stereo not drawn)
  -10.1% | 8.3%
O=C(CSc1c2c(nc3cc(Cl)ccc13)CCCC2)N1CCN(c2ccccc2)CC1
  -17.9% | -18.1%
O=S1(=O)N=C(N(CCO)/N=C/c2ccncc2)c2ccccc21
  -24.0% | -20.9%
O=[N+]([O-])c1cnn(-c2nc(-c3ccccc3)cc(C(F)(F)F)n2)c1
  -8.1% | -4.9%
C=CCN(CC=C)C(=O)c1c(OC)cccc1OC
  -7.9% | i
Cc1ccc(C(=O)NS(=O)(=O)c2ccccc2)cc1
  -3.1% | -7.1%
CN1CCN(C(=O)c2ccc3c(c2)N(Cc2ccc(Cl)cc2)C(=O)c2ccccc2S3(=O)=O)CC1
  -5.3% | -4.7%
O=C(NC(=S)N1CCN(c2ccc([N+](=O)[O-])cc2)CC1)c1ccccc1F
  -25.9% | -13.5%
COc1cc(OC)c(NC(=S)NCc2ccc(F)cc2)cc1Cl
  -5.5% | 6.4%
CCCCc1nn2c(N)c(/C=C3\C=Nc4ccccc43)c(=O)nc2s1
  -2.3% | i
CC(c1ccco1)N(C(=O)c1ccccc1NS(=O)(=O)c1cc([N+](=O)[O-])ccc1Cl)c1ccccn1 (stereo not drawn)
  -17.4% | -8.7%
CC(C)OCCCn1c(NN)nc2ccccc2c1=O
  -15.6% | i
CCCCCCN1CC(O)=C(c2nc3ccccc3[nH]2)C1=N
  -22.9% | ?
CCc1ccc(-c2cn3c(n2)sc2cc(C(=O)NCCC4=CCCCC4)ccc23)cc1
  ? | ?
Cc1ccc(OCC(=O)Nc2ccc3c(c2)sc(=O)n3C)cc1
  -9.1% | -4.8%
Cc1cccc(Sc2nc(-c3ccccc3)ncc2C(=O)O)c1
  4.3% | ?
C=CCn1c(C)cc(C(=O)CSc2nnc3n(CCC)c(=O)c4ccccc4n23)c1C
  -1.5% | -16.4%
Cn1c(-c2ccc(F)cc2)cnc1SCC(=O)NCc1ccco1
  1.0% | -7.6%
CCn1c(NCCc2ccc(OC)c(OC)c2)nc2c1c(=O)n(C)c(=O)n2C
  -11.0% | i
CCc1cccc(C)c1NC(=S)NCc1ccccc1
  -5.4% | -5.5%
OCCn1c(-c2ccc(F)cc2)csc1=Nc1ccccc1
  -9.4% | 0.0%
COc1ccc(C(=O)N/N=C/C2CC=CCC2)cc1OC (stereo not drawn)
  -1.9% | i
O=C(CCN1CCN(c2ccccc2)CC1)N/N=C/c1ccc([N+](=O)[O-])o1
  ? | ?
COc1ccc(-n2nc3c(N4CCC(C(=O)NCC(C)c5ccccc5)CC4)nnc(C)c3c2C)cc1 (stereo not drawn)
  ? | ?
Cn1c(=O)n(Cc2ccccc2)c(=O)c2c1nc1n2CCCN1Cc1ccccc1
  -0.9% | /
CCCCN(C(=O)Oc1ccccc1)C1CCS(=O)(=O)C1 (stereo not drawn)
  5.7% | -16.9%

As a working copy, part of the list above.
Sequence of screens: VACV Venus inh | Vaccinia mCherry
CN1CCN(C(=O)c2ccc3c(c2)N(Cc2ccc(Cl)cc2)C(=O)c2ccccc2S3(=O)=O)CC1
  -5.3% | -4.7%
O=C(NC(=S)N1CCN(c2ccc([N+](=O)[O-])cc2)CC1)c1ccccc1F
  -25.9% | -13.5%
COc1cc(OC)c(NC(=S)NCc2ccc(F)cc2)cc1Cl
  -5.5% | 6.4%

Next part.
Sequence of screens: VACV Venus inh | Vaccinia mCherry
O=C(Nc1ccc(Cl)cc1)c1ccsn1
  -1.9% | /
CN(CCc1ccccc1)Cc1nc(-c2cnccn2)no1
  -8.0% | -2.5%
CC1CCCN(C(=O)C2CCCN(S(=O)(=O)c3cccc4nsnc34)C2)C1 (stereo not drawn)
  -12.3% | -13.3%
O=C(CSc1nnc(NC(=O)C2CCCCC2)s1)NCc1ccco1
  -14.7% | i
O=C(CNC(=S)N(Cc1ccccc1)Cc1cccnc1)NC1CCCC1
  -24.9% | -16.6%
O=C(CCNS(=O)(=O)c1ccccc1C(F)(F)F)NCC(c1ccco1)N1CCCCC1 (stereo not drawn)
  -10.0% | -4.8%
Cc1ccsc1/C=C(\C#N)C(=O)NCc1ccco1
  -3.1% | i
Cc1cc(C)cc(N2CC(c3nc(-c4cccc(Cl)c4)no3)CC2=O)c1 (stereo not drawn)
  -3.4% | -9.3%
O=C(O)c1cn(CCOc2ccccc2Cl)c2ccccc12
  -4.1% | -15.4%
CC(C)Cc1nn2c(=O)cc(COC(=O)c3cccc(NS(C)(=O)=O)c3)nc2s1
  -8.6% | -1.1%
O=[N+]([O-])c1cc(-c2nnc(C34CC5CC(CC(C5)C3)C4)o2)cc([N+](=O)[O-])c1
  -9.8% | -8.9%
CCc1cccc(NC(=O)C2CCC(CNS(=O)(=O)c3ccc(Br)s3)CC2)c1 (stereo not drawn)
  -8.7% | -0.6%
O=C(Nc1ccc(N2CCN(C(=O)c3ccccc3)CC2)c(Cl)c1)c1ccco1
  ? | -24.6%
C[C@H](NC(=O)c1nc[nH]c1C(=O)N1CCN(c2ccccc2)CC1)C(=O)OC(C)(C)C
  -19.2% | i
O=C(O)c1ccc(/C=N/NC(=S)NCCN2CCOCC2)cc1
  -10.8% | -0.7%
O=c1c2sc3nc(N4CCOCC4)c4c(c3c2ncn1CCc1ccccc1)CCCC4
  -7.5% | -7.4%
COc1ccc2sc(C)cc(=O)c2c1
  -8.3% | i
Oc1ccc(N=Nc2ccc(Br)cc2)c(O)c1
  ? | -23.9%
CCC/C(O)=C1\C(=O)CC(C)(C)CC1=NCCO
  -12.8% | /
O=C(CCS(=O)(=O)c1cc2c(cc1Cl)NC(=O)CO2)NCCc1ccccc1
  -5.1%&10.2% | -14.4%&9.7%
COc1ccc(N(C)C(=O)c2cc3c(s2)-c2ccccc2OC3)c(OC)c1
  -1.7% | -1.9%
COC(=O)c1ccc(CSc2ccccc2NC(=S)Nc2cccc(C(F)(F)F)c2)o1
  ? | -14.6%
Cc1ccc(-c2nc3ccccn3c2Nc2c(C)cccc2C)o1
  -2.2% | -1.3%
COC(=O)C1=C(C)N(C)C(=S)NC1c1ccccc1 (stereo not drawn)
  -13.6% | i
COCCNC(=O)CCCC(=O)NCCOC
  -10.0% | -17.3%
COc1ccc(/C=N/NC(=O)Cc2cc(OC)c(OC)cc2[N+](=O)[O-])cc1
  -9.4% | -10.8%
CCN(CC)S(=O)(=O)c1ccc2oc(C(=O)NCc3ccccc3OC)c(C)c2c1
  -12.1% | -15.9%
Cc1ccc(CNC(=O)c2cc(S(=O)(=O)N3CCCCC3)ccc2N2CCOCC2)cc1
  -18.4% | ?
CNC(=O)C1CCN(S(=O)(=O)c2c(C)noc2/C=C/c2ccc(C)cc2)CC1
  -21.8% | i
COc1ccc(Cl)c(Cn2c(NCC(C)O)nc3c2c(=O)n(C)c(=O)n3C)c1 (stereo not drawn)
  -5.4% | -8.7%
COc1cc(C(=O)COC(=O)c2ccc3c(c2)OCCO3)cc(OC)c1OC
  -21.7% | -13.8%
CC1CCN(CC2CCN(C(=O)Nc3ccc(Br)cc3F)CC2)CC1
  -6.9% | -11.8%
Cc1cccc(N2CCN(C(=O)C(C)C)CC2)c1C
  -23.6% | -29.4%
CC(C)CSc1ccccc1NC(=O)c1sc2nc(-c3ccncc3)ccc2c1N
  -10.1% | -18.0%
O=C(COC(=O)[C@H](Cc1ccccc1)NC(=O)c1cccs1)Nc1c(Cl)cccc1Cl
  0.4% | -11.3%
Cn1nc(C(C)(C)C)cc1NC(=O)Nc1cc(Cl)cc(Cl)c1
  -15.0%[7.34 µM] | -3.4%[7.34 µM]
CC(=O)c1cccc(-c2ccnc3c2CC(C(=O)Nc2cccc(C(F)(F)F)c2)O3)c1 (stereo not drawn)
  -12.9% | i
CCN(CC)C(=O)CSc1nc2ccsc2c(=O)n1Cc1ccccc1Cl
  -12.7% | -10.9%
Cc1ccccc1OCC(=O)NN1C(=O)C2C3C=CC(O3)C2C1=O (stereo not drawn)
  -16.3% | -10.8%
CCn1c(CC2C(=O)N(C)c3ccc(Br)cc32)nc2ccccc2c1=O (stereo not drawn)
  -1.7%[7.34 µM] | -7.1%[7.34 µM]
COc1cc(NC(=O)c2ccccc2)c(OC)cc1Cl
  ? | /
Cc1ccc(-c2nn(-c3ccccc3)cc2/C=N/O)cc1
  ? | ?
COc1cc(-n2c(=O)c3ccccc3n(Cc3cccnc3)c2=O)cc(OC)c1OC
  -6.8% | i
C=CCN(CC(=O)Nc1cccnc1)S(=O)(=O)c1ccc(Cl)cc1
  -10.6% | -14.1%
COCCN(CCOC)S(=O)(=O)c1ccc(C(=O)Nc2nnc(C)o2)cc1
  -17.3% | -29.9%
CCOCCCNC(=S)N1C2CCC1CC(NC(=O)NC13CC4CC(CC(C4)C1)C3)C2 (stereo not drawn)
  -24.7% | -8.3%
O=C(N/N=C/C=C/c1ccc2c(c1)OCO2)c1ccc([N+](=O)[O-])cc1
  -2.0% | -4.9%
Cc1ccccc1N1C(=O)NC(=O)/C(=C\c2cc(Br)c(N3CCOCC3)o2)C1=O
  1.9% | -4.6%
O=C(N/N=C/C=C/c1ccccc1)C(O)c1ccccc1 (stereo not drawn)
  -7.3% | i
Cc1cccc(C)c1-n1nnnc1C1c2ccccc2C(=O)N1C1CC1 (stereo not drawn)
  -0.1% | -4.2%
CCCCOCCCn1c(N)c(C(=O)OC(C)COC)c2nc3ccccc3nc21 (stereo not drawn)
  -20.0% | ?
COc1ccc(C(C(=O)NC2CCCCC2)N(Cc2cccnc2)C(=O)c2snc(C(N)=O)c2N)cc1 (stereo not drawn)
  -2.1% | 0.7%
COc1cccc(NC(=O)C(C)(C)C)c1
  3.1% | i
CC(Oc1ccc2c(-c3ccccc3)cc(=O)oc2c1)C(=O)N[C@H](Cc1c[nH]c2ccccc12)C(=O)O (stereo partly drawn)
  1.5% | 1.2%
O=C(Nc1cccc2nsnc12)C1CC(=O)N(c2ccccc2)C1 (stereo not drawn)
  -0.2% | /
COc1cc(C2c3c(oc4ccc(C)cc4c3=O)C(=O)N2Cc2ccccc2)ccc1O (stereo not drawn)
  1.5% | -6.4%
O=C(N/N=C/c1ccc2cccc(OCc3ccccc3)c2n1)c1ccc(Cl)cc1
  -24.7% | -29.1%
Cc1ccc(Oc2nc3ccccc3n3cccc23)cc1
  -21.4% | /
COCCNC(=O)c1ccccc1NC(=O)c1ccccc1SC
  4.8% | 12.3%
Cc1cccc(C(=O)NCC(=O)OCC(=O)N(C)CC(=O)Nc2ccccc2Cl)c1
  -2.2% | i

Next part.
Sequence of screens: VACV Venus inh | Vaccinia mCherry
Cc1[nH]c(=O)c(C#N)c2c1CSC(C)(C)C2
  -10.8% | -6.6%
CCCS(=O)(=O)N1CCN(c2ccccc2F)CC1
  -3.2% | /
O=c1c2cccnc2n(Cc2cccc(F)c2)c(=O)n1Cc1ccccc1Cl
  -2.5% | -15.4%
CCOC(=O)C1CCN(C(=O)COC(=O)CSc2ccccc2C)CC1
  0.0% | i
CCOC(=O)C(=CN=C(N)Nc1nc2ccccc2o1)C(=O)OCC
  -4.4% | ?
Cc1ccc(NC(=O)Cc2c(C(=O)O)c(C)cn2C)cc1Cl
  -3.2% | -9.6%
COC(=O)C(NS(=O)(=O)c1ccc(C)cc1)c1ccccc1 (stereo not drawn)
  -12.6% | i
CCOCCn1c(CN2CCOCC2)nc2c1c(=O)[nH]c(=O)n2C
  8.3% | -14.5%
CC1CC(C)CN(c2oc(-c3ccc(OCc4ccc(Cl)cc4)cc3)nc2C#N)C1 (stereo not drawn)
  -14.4% | -8.2%
CCn1c(NN)nc2sc3c(c2c1=O)CCC3
  -2.0% | i
Cc1ccc(-c2csc(=Nc3cccnc3)n2CCCn2ccnc2)cc1C
  ? | -11.6%

Screens as filed in PubChem.
